# Assay outcomes: PubChem, Broad Institute
# A1 apoptosis 2 = A1 inhibition read as caspase activation; MEF A1-2A-BIM cells, caspase-Glo luminescence, 3 h; percent of clofoctol response, DMSO zero; caspase activation, % (test concentration not listed); 24,000 tested, under 10 active; AID 2465; in the data active = caspase activation above about 5.9%;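 also: wells of about 30 µL received 50 nL stock; the first replicate is given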
#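 system = A1-2A-BIM-expressing MEF cells | quantity = 2500 MEF cells/well | dosing = 50 nL compound per well, pinned | schedule = overnight cell settling, then 3 h compound exposure, 37 °C | signal = luminescence from DEVD-luciferin Caspase-Glo reagent, 1:1 in 50 mM HEPES, 1 h RT | read-out = Caspase-3/7 activation, seen as rise in luminescence signal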
# * hit, by the source's call. A portion of the library. The share of hits here may be higher or lower than overall.
SMILES,A1 apoptosis 2
C[C@@H]1CN([C@@H](C)CO)C(=O)c2cccc(NC(=O)Nc3ccc(C(F)(F)F)cc3)c2O[C@H]1CN(C)Cc1ccc(-c2ccccc2)cc1,-0.7
COc1ccc(NC(=O)Nc2ccc3c(c2)C(=O)N([C@H](C)CO)C[C@@H](C)[C@H](CN(C)S(C)(=O)=O)OCCCC[C@H](C)O3)cc1,-0.7
C[C@H](CO)N1C[C@H](C)[C@@H](CN(C)C(=O)Nc2ccc3c(c2)OCCO3)OCc2cn(nn2)CCCC1=O,0.4
C[C@H](CO)N1C[C@H](C)[C@H](CN(C)C(=O)NC2CCCCC2)OCCCC[C@H](C)Oc2ccc(NS(C)(=O)=O)cc2C1=O,0.2
C[C@H](CO)N1C[C@H](C)[C@H](CN(C)C(=O)NC2CCCCC2)Oc2ccc(NC(=O)CCC(F)(F)F)cc2C1=O,0.6
C[C@@H]1CCCCO[C@@H](CN(C)Cc2ccc(C(F)(F)F)cc2)[C@@H](C)CN([C@@H](C)CO)C(=O)c2cc(NC(=O)CCCN(C)C)ccc2O1,1.7
COc1ccc(NC(=O)Nc2cccc3c2O[C@H](CN(C)Cc2ccc(C(F)(F)F)cc2)[C@H](C)CN([C@@H](C)CO)C3=O)cc1,-0.1
C[C@@H]1CN([C@@H](C)CO)C(=O)c2cc(NC(=O)Nc3ccc(C(F)(F)F)cc3)ccc2O[C@@H](C)CCCCO[C@@H]1CN(C)Cc1ccc(C(=O)O)cc1,0.8
CC(C)(C)NC(=O)C(OC(=O)c1ccccc1)c1ccco1 (stereo not drawn),0.1
O=C(N/N=C/c1cc2c(cc1Br)OCO2)c1ccccc1O,-9.5
Cc1noc(C)c1NC(=O)N(C)C[C@@H]1Oc2ccc(NS(=O)(=O)c3cccs3)cc2CC(=O)N([C@@H](C)CO)C[C@@H]1C,-0.1
C[C@H]1CN([C@@H](C)CO)C(=O)Cc2cc(NC(=O)c3ccncc3)ccc2O[C@@H]1CN(C)C(=O)Nc1ccccc1,-0.6
COc1ccc(NC(=O)Nc2ccc3c(c2)C(=O)N([C@@H](C)CO)C[C@@H](C)[C@@H](CN(C)Cc2ccncc2)OCCCC[C@@H](C)O3)cc1,-1.6
COc1ccc(NC(=O)Nc2ccc3c(c2)C(=O)N([C@H](C)CO)C[C@H](C)[C@H](CN(C)Cc2ccc(C(=O)O)cc2)O3)cc1,-0.5
C[C@H]1CN([C@@H](C)CO)C(=O)c2cccc(NC(=O)CCCCCC(=O)Nc3ccccc3N)c2O[C@H]1CN(C)C(=O)Nc1ccccc1,-0.1
C[C@@H]1CN([C@@H](C)CO)C(=O)Cc2cc(NC(=O)C3CC3)ccc2O[C@@H]1CN(C)C(=O)Nc1ccc(C(F)(F)F)cc1,0.2
Cc1ccc(S(=O)(=O)N(C)C[C@@H]2Oc3c(NS(=O)(=O)c4cn(C)cn4)cccc3C(=O)N([C@H](C)CO)C[C@@H]2C)cc1,-0.6
CC(C)NC(=O)N(C)C[C@H]1Oc2ccc(NC(=O)CCN3CCOCC3)cc2C(=O)N([C@H](C)CO)C[C@@H]1C,-0.1
C[C@@H]1CN([C@H](C)CO)C(=O)Cc2cc(NS(=O)(=O)c3ccc(Cl)cc3)ccc2O[C@H]1CN(C)S(=O)(=O)c1ccc(Cl)cc1,0.8
C[C@H](CO)N1C[C@H](C)[C@H](CN(C)CC2CCCCC2)OCCCC[C@H](C)Oc2ccc(NS(=O)(=O)c3cccs3)cc2C1=O,0.2
CN1CCN(C(=O)C2=C[C@@H](c3ccc4c(c3)OCO4)C[C@@H](OCCCCO)O2)CC1,0.4
C[C@@H]1CCCCO[C@@H](CN(C)C(=O)Nc2ccccc2)[C@H](C)CN([C@@H](C)CO)C(=O)c2cc(NC(=O)Cc3ccccc3)ccc2O1,0.6
COc1ccc(NC(=O)Nc2ccc3c(c2)C(=O)N([C@@H](C)CO)C[C@H](C)[C@@H](CN(C)Cc2ccc(C(=O)O)cc2)O3)cc1,0.6
O=C(N/N=C/c1ccc2c(c1)OCCO2)c1ccccn1,-12.9
C[C@H]1CN([C@@H](C)CO)C(=O)Cc2cc(NC(=O)c3ccncc3)ccc2O[C@H]1CN(C)C(=O)NC1CCCCC1,-0.4
CC(C)NC(=O)N(C)C[C@H]1OCCCC[C@H](C)Oc2ccc(NS(C)(=O)=O)cc2C(=O)N([C@@H](C)CO)C[C@@H]1C,-0.5
COc1cccc(-c2cnc3c(c2)C(=O)N([C@H](C)CO)C[C@H](C)[C@H](CN(C)Cc2ccccc2)O3)c1,0.2
C[C@@H]1CN([C@H](C)CO)C(=O)c2cccc(NS(=O)(=O)c3cccs3)c2O[C@@H]1CN(C)C(=O)NC1CCCCC1,-0.3
Cc1noc(C)c1NC(=O)N(C)C[C@@H]1OCCCC[C@@H](C)Oc2ccc(NC(=O)c3ccncc3)cc2C(=O)N([C@H](C)CO)C[C@@H]1C,-0.4
CNC[C@H]1OCCCC[C@@H](C)Oc2ccc(NS(=O)(=O)c3ccccc3)cc2C(=O)N([C@@H](C)CO)C[C@H]1C,1.1

# Some of these compounds in order of molecular weight, smallest number first.
SMILES,A1 apoptosis 2
O=C(N/N=C/c1cc2c(cc1Br)OCO2)c1ccccc1O,-9.5
CC(C)NC(=O)N(C)C[C@H]1Oc2ccc(NC(=O)CCN3CCOCC3)cc2C(=O)N([C@H](C)CO)C[C@@H]1C,-0.1
C[C@@H]1CCCCO[C@@H](CN(C)Cc2ccc(C(F)(F)F)cc2)[C@@H](C)CN([C@@H](C)CO)C(=O)c2cc(NC(=O)CCCN(C)C)ccc2O1,1.7

# An excerpt taken from the entries so far, for reference:
SMILES,A1 apoptosis 2
C[C@H](CO)N1C[C@H](C)[C@H](CN(C)CC2CCCCC2)OCCCC[C@H](C)Oc2ccc(NS(=O)(=O)c3cccs3)cc2C1=O,0.2
CN1CCN(C(=O)C2=C[C@@H](c3ccc4c(c3)OCO4)C[C@@H](OCCCCO)O2)CC1,0.4
C[C@@H]1CCCCO[C@@H](CN(C)C(=O)Nc2ccccc2)[C@H](C)CN([C@@H](C)CO)C(=O)c2cc(NC(=O)Cc3ccccc3)ccc2O1,0.6
COc1ccc(NC(=O)Nc2ccc3c(c2)C(=O)N([C@@H](C)CO)C[C@H](C)[C@@H](CN(C)Cc2ccc(C(=O)O)cc2)O3)cc1,0.6
O=C(N/N=C/c1ccc2c(c1)OCCO2)c1ccccn1,-12.9

# Next compounds
SMILES,A1 apoptosis 2
COc1ccc(NC(=O)N(C)C[C@H]2Oc3ccc(NC(=O)CCCCCC(=O)Nc4ccccc4N)cc3C(=O)N([C@@H](C)CO)C[C@@H]2C)cc1,-0.2
Cc1noc(C)c1NC(=O)Nc1ccc2c(c1)C(=O)N([C@@H](C)CO)C[C@@H](C)[C@H](CN(C)S(=O)(=O)c1ccc(F)cc1)O2,1.5
COc1ccc(S(=O)(=O)N(C)C[C@H]2Oc3c(NC(=O)c4ccncc4)cccc3C(=O)N([C@H](C)CO)C[C@H]2C)cc1,-1.7
COc1ccc(S(=O)(=O)N(C)C[C@H]2Oc3ccc(NS(=O)(=O)c4ccc(Cl)cc4)cc3C(=O)N([C@@H](C)CO)C[C@H]2C)cc1,-0.8
C[C@@H]1CN([C@H](C)CO)C(=O)CCCn2cc(nn2)CO[C@@H]1CN(C)S(=O)(=O)c1ccc(Cl)cc1,0.4
C[C@H]1CN([C@@H](C)CO)C(=O)c2cccc(NS(=O)(=O)c3ccc(Cl)cc3)c2O[C@H]1CN(C)Cc1ccncc1,1.6
CCO[C@H]1OC(C(=O)N2CCN(Cc3ccc4c(c3)OCO4)CC2)=C[C@@H](c2ccc(C(F)(F)F)cc2)[C@@H]1CCCO,0.1
COc1ccc(CN(C)C[C@@H]2Oc3ccc(NC(=O)Cn4cnnn4)cc3CC(=O)N([C@H](C)CO)C[C@H]2C)cc1,-0.4
CN1CCN(C(=O)C2=C[C@H](C3CC3)C[C@H](OCCCCO)O2)CC1,-0.5
O=C(N1CCOCC1)[C@]1(CCS(=O)(=O)c2ccccc2)N=C(c2ccc(OCCCO)cc2)O[C@@H]1c1ccccc1,1.0
COc1ccc(S(=O)(=O)N(C)C[C@H]2Oc3ccc(NC(=O)Cn4cnnn4)cc3C(=O)N([C@@H](C)CO)C[C@H]2C)cc1,-0.8
Cc1noc(C)c1NC(=O)N(C)C[C@@H]1Oc2ccc(NC(=O)NC(C)C)cc2CC(=O)N([C@H](C)CO)C[C@H]1C,0.0
COc1ccc(S(=O)(=O)N(C)C[C@H]2Oc3c(NC(=O)Nc4c(C)noc4C)cccc3C(=O)N([C@H](C)CO)C[C@@H]2C)cc1,0.3
C[C@@H]1CN([C@H](C)CO)C(=O)Cc2cc(NS(C)(=O)=O)ccc2O[C@@H]1CN(C)Cc1ccc(C(=O)O)cc1,-1.7
C[C@@H]1CN([C@@H](C)CO)C(=O)c2cc(NC(=O)Nc3cccc4ccccc34)ccc2O[C@@H]1CN(C)S(=O)(=O)c1cccs1,-0.7
C[C@H](CO)N1C[C@H](C)[C@@H](CN(C)C(=O)c2ccccc2)OCCCC[C@H](C)Oc2ccc(NS(=O)(=O)c3ccccc3)cc2C1=O,0.8
C[C@H]1CN([C@@H](C)CO)C(=O)c2cccc(N(C)C)c2O[C@H]1CN(C)C(=O)NC1CCCCC1,-0.3
C[C@@H]1CN([C@@H](C)CO)C(=O)CCCn2nncc2CO[C@H]1CN(C)Cc1ccc(Oc2ccccc2)cc1,0.0
C[C@H](CO)N1C[C@H](C)[C@H](CN(C)C)Oc2ncc(/C=C/c3ccccc3)cc2C1=O,-0.4
COc1ccc(S(=O)(=O)Nc2cccc3c2O[C@@H](CN(C)S(=O)(=O)c2cn(C)cn2)[C@H](C)CN([C@H](C)CO)C3=O)cc1,1.5
CNC[C@@H]1Oc2ncc(C#Cc3ccccc3)cc2C(=O)N([C@H](C)CO)C[C@@H]1C,-0.9
C[C@@H]1CN([C@@H](C)CO)C(=O)c2cc(NC(=O)C3CCCCC3)ccc2O[C@@H](C)CCCCO[C@H]1CN(C)C(=O)NC1CCCCC1,0.0
Cc1noc(C)c1NC(=O)Nc1ccc2c(c1)C(=O)N([C@H](C)CO)C[C@@H](C)[C@H](CN(C)S(=O)(=O)c1ccccc1)O2,0.9
C[C@H]1CN([C@@H](C)CO)C(=O)c2cccc(NC(=O)c3ccc(-c4nccs4)cc3)c2O[C@@H]1CN(C)Cc1ccc(-c2ccccc2)cc1,-0.8
CC1(C)COC(CCC/C=N/NC(=O)CCCCCCC(=O)NO)OC1,0.6
CCCN(C)C[C@@H]1Oc2ncc(-c3ccccc3)cc2C(=O)N([C@H](C)CO)C[C@@H]1C,-0.4
CC(C)NC(=O)N(C)C[C@@H]1OCCCC[C@@H](C)Oc2ccc(NS(C)(=O)=O)cc2C(=O)N([C@H](C)CO)C[C@H]1C,-1.0
C[C@@H]1CCCCO[C@@H](CN(C)C(=O)Cc2ccccc2)[C@H](C)CN([C@@H](C)CO)C(=O)c2cc(NS(=O)(=O)c3ccccc3)ccc2O1,2.1
COc1ccc(S(=O)(=O)N(C)C[C@H]2OCCCC[C@H](C)Oc3ccc(NC(=O)Nc4ccc5c(c4)OCO5)cc3C(=O)N([C@@H](C)CO)C[C@@H]2C)cc1,-0.4
COc1ccc(NC(=O)N(C)C[C@H]2OCCCC[C@@H](C)Oc3ccc(NS(C)(=O)=O)cc3C(=O)N([C@@H](C)CO)C[C@@H]2C)cc1,-0.2
C[C@H](CO)N1C[C@H](C)[C@H](CN(C)S(C)(=O)=O)Oc2c(NS(=O)(=O)c3cccs3)cccc2C1=O,1.4
C[C@@H]1CN([C@H](C)CO)C(=O)Cc2cc(NS(C)(=O)=O)ccc2O[C@H]1CN(C)C(=O)NC1CCCCC1,-0.5
C[C@H](CO)N1C[C@H](C)[C@H](CN(C)Cc2ccc(-c3ccccc3)cc2)Oc2c(NC(=O)Nc3ccc4c(c3)OCO4)cccc2C1=O,0.2
C[C@H]1CCCCO[C@@H](CN(C)C(=O)c2ccncc2)[C@@H](C)CN([C@@H](C)CO)C(=O)c2cc(NS(=O)(=O)c3ccccc3)ccc2O1,-1.5
CNC[C@H]1Oc2c(NS(=O)(=O)c3c(C)noc3C)cccc2C(=O)N([C@H](C)CO)C[C@H]1C,-0.6
C[C@H](CO)N1C[C@H](C)[C@H](CN(C)C(=O)Nc2ccc3c(c2)OCO3)Oc2ccc(NS(=O)(=O)c3cccs3)cc2C1=O,1.2
Cc1noc(C)c1S(=O)(=O)Nc1cccc2c1O[C@@H](CN(C)C(=O)Nc1cccc3ccccc13)[C@@H](C)CN([C@H](C)CO)C2=O,-0.1
C[C@@H]1CN([C@@H](C)CO)C(=O)CCCn2nncc2CO[C@@H]1CN(C)S(=O)(=O)c1ccccc1,-0.6
Cc1ccc(S(=O)(=O)N(C)C[C@H]2Oc3ccc(NC(=O)CCCN(C)C)cc3C(=O)N([C@H](C)CO)C[C@H]2C)cc1,-0.2
CC(C)NC(=O)Nc1ccc2c(c1)CC(=O)N([C@@H](C)CO)C[C@@H](C)[C@H](CN(C)Cc1ccc(Cl)c(Cl)c1)O2,-1.6
C[C@H](CO)N1C[C@H](C)[C@@H](CN(C)S(=O)(=O)c2ccc(F)cc2)Oc2ccc(NS(C)(=O)=O)cc2CC1=O,-1.0
C[C@@H]1CN([C@H](C)CO)C(=O)c2cc(NS(=O)(=O)c3ccc(F)cc3)ccc2O[C@H]1CN(C)Cc1ccncc1,1.4
CC(C)NC(=O)N(C)C[C@@H]1Oc2ccc(NS(=O)(=O)c3cn(C)cn3)cc2C(=O)N([C@H](C)CO)C[C@H]1C,0.6
C[C@H](CO)N1C[C@H](C)[C@H](CN(C)Cc2ccc(C(=O)O)cc2)Oc2ccc(NS(=O)(=O)c3cn(C)cn3)cc2CC1=O,0.0
